Screening data (PubChem)
Vif TR-FRET = HIV-1 Vif–A3G interaction blockers – biochemical, TR-FRET, GST-Vif 1-94, biotin-A3G peptide, dose response retest, primary screen (AID 1117319); inhibition, %, or IC50 in µM where a hit was titrated; TR-FRET GST-Vif / biotin-A3G peptide binding; higher % means a stronger effect; test concentration not given here; strong numbers were not always called active; 260,000 compounds, 0.57% hits;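 active = above the screen mean plus three standard deviations and confirmed in dose response; inconclusive = results disagree or hit not tested in dose response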;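 note: Vif residues 1-94 fused to GST binding biotinylated APOBEC3G peptide 110-148; 0% = full assay without inhibitor and 100% = GST in place of GST-Vif; retest series ran down from 100 µM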
Calb FLC = C. albicans growth modulation with fluconazole; 300,000 compounds, 0.57% hits; C. albicans CaCi-2 (fluconazole-resistant clinical isolate) + fluconazole, Alamar Blue growth, 48 h; growth inhibition, % (test concentration not listed);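 active = most replicates above 75%; inconclusive = exactly half above 75%; inactive = most below 75%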;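 note: all wells also contain fluconazole at 8 µg/ml as a sub-toxic cotreatment; 0% = median of DMSO wells and 100% = median of geldanamycin control wells; wells of about 8 µL received 7.5 nL stock; the first replicate is given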
Beta apoptosis = blocks beta cell apoptosis; AID 435005; 300,000 compounds, 0.8% hits; INS-1E cytokine-induced death, ATP luminescence, 48 h; percent of positive-control rescue, neutral wells zero; protection from apoptosis, % (test concentration not listed);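 active = all replicates at 75% or more, or half of them and the mean; inconclusive = half reach 75% but not the mean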;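 note: 0% = cytokine-treated negative control wells and 100% = positive control rescue; higher means more ATP so stronger rescue from cytokine killing; wells of about 40 µL received 100 nL stock; the first replicate is given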
A1 inh = inhibitors of the anti-apoptotic protein A1, read as caspase activation; MEF A1-2A-BIM cells, Caspase-Glo 3/7 luminescence, 3 h; percent of clofoctol response, vehicle zero; caspase activation, % (test concentration not listed); 330,000 compounds, 0.066% hits;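 active = over half of replicate activation scores above 10%, or exactly half above 10 with the replicate mean above 10; inconclusive = replicate mean below 10 yet half the replicates above 10; inactive = over half of replicates below 10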;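 note: wells of about 30 µL received 50 nL stock; many hits fall short of the cut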
RanGTP-Impb inh = disruptors of Ran-importin-beta complex formation – biochemical, FRET, CFP-Ran, YFP-importin-beta, homogeneous, primary screen; inhibition, % (no concentration beside the values); AID 2216; cell-free CFP-Ran/YFP-importin-beta FRET ratio; 300,000 compounds, 1.1% hits;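 active = most replicates above 15%; inconclusive = exactly half above 15%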;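 note: 0% = DMSO wells and 100% = Ran loaded with GDP instead of GTP; wells of about 40 µL received 100 nL stock; the first replicate is given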
MLL AF4-AF9 inh = inhibitors of human MLL-AF4/AF9 interaction; 350,000 compounds, 0.47% hits; AlphaScreen, biotin-AF4 peptide binding to FLAG-AF9; inhibition, % at 10 µM; P42568;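 active = every replicate reaching a set inhibition limit, whatever the replicate mean, cut at about 25% in these data; inconclusive = mean inhibition reaches that limit but some replicates miss it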;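 note: 0% = plate neutral control median and 100% = total signal loss; the record names both 10 and 1 µM as test concentration; the first replicate is given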
Target sequence (P42568 whole entry, looked up): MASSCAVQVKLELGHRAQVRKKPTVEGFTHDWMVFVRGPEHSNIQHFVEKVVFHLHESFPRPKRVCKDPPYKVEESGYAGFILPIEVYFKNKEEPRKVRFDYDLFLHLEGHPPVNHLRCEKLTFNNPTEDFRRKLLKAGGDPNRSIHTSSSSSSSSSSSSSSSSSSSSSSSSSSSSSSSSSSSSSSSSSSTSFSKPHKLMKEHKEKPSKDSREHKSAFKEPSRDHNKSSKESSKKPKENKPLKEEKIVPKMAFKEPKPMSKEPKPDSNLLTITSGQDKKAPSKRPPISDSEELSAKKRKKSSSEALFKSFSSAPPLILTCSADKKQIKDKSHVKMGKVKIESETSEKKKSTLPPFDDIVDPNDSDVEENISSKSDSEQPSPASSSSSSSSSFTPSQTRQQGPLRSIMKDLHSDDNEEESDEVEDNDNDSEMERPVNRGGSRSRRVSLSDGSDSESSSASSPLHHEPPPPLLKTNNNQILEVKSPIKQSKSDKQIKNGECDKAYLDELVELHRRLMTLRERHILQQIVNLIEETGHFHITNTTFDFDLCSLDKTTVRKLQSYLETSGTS
T cruzi inh = blocks replication of Trypanosoma cruzi | T. cruzi beta-gal in NIH3T3, luminescence, 90 h | inhibition, % (no concentration beside the values) | 300,000 compounds, 1.4% hits | AID 1885;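 active = mean inhibition across valid replicates above about 55%, limit read from the data; inconclusive = mean below that limit but half or more replicates reach it; inactive = mean below it, under half of replicates reach it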;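 note: signal also drops with host cell toxicity which is not excluded here; 0% = plate median of DMSO wells and 100% = zero luminescence signal; higher percent means less beta-gal luminescence so fewer parasites; stock transfer was 50 nL into about 50 µL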
rRNA inh HTS = inhibits bacterial ribosomal RNA function over humanized ribosomes; E. coli WT GFP vs humanized-ribosome RFP mutants, fluorescence, 24 h; stronger effect = lower value; DMSO median 0, no signal -100; 350,000 compounds, 1.6% hits; GFP signal change (wild-type ribosome), % (no concentration beside the values);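 active = significant combined selectivity score with lowered wild-type GFP, culture density cut under 30%, mutant RFP and density less affected; inactive = any of these conditions unmet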; note: one replicate is shown; some compounds called inactive have numbers as strong as hits
rRNA inh HTS OD600 = further read-out of rRNA inh HTS, marked with its call; OD600 change, %; measured here: OD600 growth;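 optical density of the mix in the first replicate; 0 = DMSO median and -100 = no signal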
rRNA inh HTS RFP = second read-out of rRNA inh HTS, no call of its own (marks repeat the call); RFP signal change, %; measured here: RFP humanized mutant strains;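 first replicate; 0 = DMSO median and -100 = no signal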
An asterisk follows results filed as active; ? = inconclusive; / = not tested or not shown. A portion of the library. The share of hits here may be higher or lower than overall.

SMILES	Vif TR-FRET	Calb FLC	Beta apoptosis	A1 inh	RanGTP-Impb inh	MLL AF4-AF9 inh	T cruzi inh	rRNA inh HTS	rRNA inh HTS OD600	rRNA inh HTS RFP
O=C(O)C1CCc2sc3[nH]c(=S)n(-c4ccccc4)c(=O)c3c21 (stereo not given)	6%	10	-5	0.1	1.5	-4.3	-7	17	-5	0.8
Cn1nc([N+](=O)[O-])c(C(C#N)c2ccccn2)c(Cl)c1=O (stereo not given)	14%	/	-40	0.1	/	-1.8	64*	12	7	-0.9
CC1C=CCC2C(=O)N(c3ccc(OC(=O)c4ccco4)cc3)C(=O)C12 (stereo not given)	/	-2	2	0.7	?	?	-1	-2	-4	-2.1
O=c1oc2ccccc2c(NCc2ccccc2F)c1[N+](=O)[O-]	?	15	-12	-0.4	-2.2	0.0	17	-3	-1	-7.9
COc1ccccc1OCCn1cc(C=O)c2ccccc21	/	1	0	?	4.4	-8.0	-4	-2	4	3.9
COCC(=O)OCC(=O)Nc1cc(C)c(C)cc1[N+](=O)[O-]	-4%	-3	-3	-0.8	8.2	-0.8	6	8	16	-0.3
O=C(N/N=C/c1cccs1)c1cc(-c2cccc3ccccc23)n[nH]1	/	32	14	-1.6	-1.2	10	2	-45	-72	-5.4
COc1ccc(CCNC(=O)CNCC2CCCO2)cc1OC (stereo not given)	-1%	30	1	0.8	-0.7	/	-34	/	/	/
Cc1cc(C)c2[nH]c(=O)c(C(c3nnnn3CC3CCCO3)N3CCCC(C)C3)cc2c1 (stereo not given)	4%	4	1	-1.0	-5.6	/	9	/	/	/
Cc1ccc(C(=O)N/N=C/c2cc(Br)ccc2O)cn1	/	39	69	-0.6	5.7	1.6	33	-14	-10	-6.0
CC(=O)c1cccc(NC(=O)N2CCC(c3ccc(C)cc3)C2)c1 (stereo not given)	-2%	12	-1	0.8	-0.4	5.6	9	-23	-18	-12
CCOc1cc(/C=N/NC(=O)c2cccnc2)ccc1OCC(N)=O	?	107*	1	-0.3	/	-2.7	/	7	8	0.7
Nc1ccc(-c2cn3cccnc3n2)cc1	3%	-3	/	/	-1.0	-1.5	-14	-7	-2	-0.1
O=C(COC(=O)c1ccc(Br)o1)NC12CC3CC(CC(C3)C1)C2	/	/	-2	?	/	-4.1	/	-11	-7	2.7
Cc1ccnc(NC(=O)c2ccc(S(=O)(=O)N3CCC(C)CC3)cc2)c1	0%	-6	-3	-1.0	0.1	-3.3	2	8	11	0.2
CC(C)CC(=O)c1c(O)c(C=O)c(O)c2c1O[C@@]1(C)[C@@H](C2)C[C@H]2C[C@@H]1C2(C)C	/	/	2	-0.3	/	1.7	/	23	14	2.2
Cc1ccc(C)c(N(CC(=O)NC2CCCCC2)C(=O)c2snc(C(N)=O)c2N)c1	/	-3	4	-0.4	0.6	?	1	/	/	/
Cc1cc(NC(=O)CS(=O)(=O)c2ccc(F)cc2)no1	6%	-17	/	0.6	-2.8	-0.4	-9	4	11	-1.4
CCN(CC)c1ccc2c(Cl)cc(=O)oc2c1	-2%	-8	-3	1.6	74*	/	-4	/	/	/
COc1ccc(NC(=O)Nc2cccc(C(F)(F)F)c2)cn1	-13%	-4	1	/	-3.0	0.3	11	-58	-81	-23
CCCn1ncc(CN2CCC(n3nccc3NC(=O)c3ccccc3Cl)CC2)c1C	/	2	-8	-7.5	2.4	-1.1	22	13	6	1.1
COc1cccc(N2CCN(Cc3cccnc3)CC2)c1	20%	0	-4	-0.4	-1.2	/	2	/	/	/
Cc1ccc(/C=N/N2CCN(C3c4ccccc4-c4ccccc43)CC2)s1	/	-7	2	-0.1	?	1.6	5	-9	3	16
COc1ccccc1N1CCN(C(=O)c2cc(=O)c3cc(C)cc(C)c3o2)CC1	2%	5	53	0.5	2.1	-2.2	31	-12	-16	3.5
CCN(CC)CCNS(=O)(=O)c1ccc2c3c(cccc13)C(=O)N2	/	2	-1	0.8	8.1	1.9	-9	10	4	3.5
Cc1cccc(C(=O)NCC2CCN(C(=O)c3cccc(C)c3)CC2)c1	/	6	0	0.7	0.7	-0.4	9	3	10	0.1
CCOC(=O)C(C)Sc1ccc2nnc(CCNS(=O)(=O)c3ccccc3)n2n1 (stereo not given)	-19%	-3	0	0.3	4.9	-0.8	-3	9	10	-0.1
Cc1cccc(S(=O)(=O)NNC(=O)c2sc(C)nc2C)c1	5%	-14	4	-0.8	3.3	-2.8	-8	1	2	0.6
O=C(N/N=C/c1cc(Br)cs1)c1c[nH]c2ccccc12	2%	-13	12	-0.9	-2.5	/	-5	-51	-80	-9.9
O=S1(=O)CCOCCCN1Cc1cccc(F)c1	/	-12	-1	-0.2	2.5	3.0	3	5	11	-3.3
CC(C)C(CO)NC(=O)CC(=O)NC(CO)C(C)C (stereo not given)	31%	-5	2	-0.1	-3.7	-16	-8	11	7	0.7
Cc1cc(C)c(NS(=O)(=O)c2ccc(NC(=O)CCC(=O)O)cc2)c(C)c1	-9%	4	/	1.8	-3.9	2.5	13	10	5	2.3
O=[N+]([O-])c1cccc(-c2ccc(/C=N/Nc3nc(N4CCCCC4)nc(N4CCCCC4)n3)o2)c1	0%	-10	9	-0.2	0.4	9.6	?	21	18	-0.8
O=C(Cc1ccc(Cl)cc1)NCC(=O)N1CCCCC1	-9%	-1	7	0.4	-3.0	1.0	-2	8	7	-2.7
CC(C)Oc1ccc(C(=O)N(Cc2ccco2)C2CCS(=O)(=O)C2)cc1 (stereo not given)	68%	-1	-6	2.0	4.7	4.8	1	5	-1	-1.7
COCCNC(=O)c1ccc(Cl)c(Cl)c1	-1%	15	-6	-0.5	4.0	4.8	-16	3	-3	-7.1
CN(C)S(=O)(=O)c1ccc(Cl)c(NC(=O)c2ccncc2)c1	12%	5	-6	-0.8	1.7	/	-10	/	/	/
O=C1[C@H]2[C@@H](/C=C/c3ccccc3)N3C(=O)CN(CC4CC4)C(=O)[C@@]3(Cc3ccccc3)[C@H]2C(=O)N1c1ccccc1	/	1	-5	-0.2	1.1	-2.8	-20	1	4	1.4
COc1ccc(-c2coc3cc(OC)cc(OC)c3c2=O)cc1	/	-4	8	0.0	7.5	0.5	3	-27	-22	-10
COC(=O)c1ccc(S(=O)(=O)NCc2ccco2)o1	-9%	-12	-2	0.0	-1.7	-2.9	-25	25	1	5.8
COC(=O)CCC(=O)N(C)CC1CCCN(CCc2cccc(C(F)(F)F)c2)C1 (stereo not given)	/	-1	-7	1.0	0.0	-0.3	43	6	5	-0.3
CCOC(=O)c1[nH]c(C)c(CN(Cc2ccco2)C(=O)C(F)(F)F)c1C	13%	3	-2	0.3	1.4	/	19	/	/	/
O=C(CCc1nc2ccccc2c(=O)[nH]1)OCC(=O)N1CCc2ccccc21	10%	2	-6	0.8	1.5	-2.7	-12	9	18	-1.3
O=C(NNC(=O)c1ccc(F)cc1)c1ccncc1	/	1	-1	0.7	0.4	-2.0	-4	3	18	2.1
COc1ccc(C(=O)n2c(SC)nc3cc4c(cc32)OCCO4)cc1	-3%	-8	-6	-1.6	0.9	/	-17	/	/	/
Cc1cccc(C(=O)OC(C)C(=O)Nc2ccc(S(=O)(=O)N3CCCC3)cc2)c1O (stereo not given)	-5%	0	2	0.4	1.1	-7.9	6	-7	-26	7.5
CCCc1nc2sc3c(c2c(=O)n1NC(=O)CCC(=O)OC)CCCC3	2%	9	-1	-0.4	-2.8	-3.7	2	-4	2	-0.3
CC1=CC(C)(C)N(C(=O)CN2C(=O)CCC2=O)c2ccccc21	-3%	-8	-2	1.7	-2.6	-9.6	5	2	-3	-3.7
CC(/C=C/c1ccccc1)=N/NC(=O)CNC(=O)c1ccc2c(c1)OCO2	9%	0	-2	1.1	-1.9	/	-3	/	/	/
CCc1ccc(N(C(=O)c2csnn2)C(C(=O)NC2CCCC2)c2cccnc2)cc1 (stereo not given)	/	-1	-5	0.5	2.0	-1.9	-3	4	7	-1.1
CC1CN(Cc2ccccc2)c2nc3c(c(=O)[nH]c(=O)n3C)n2C1 (stereo not given)	-5%	2	4	-0.5	3.0	-0.1	-10	-7	-3	0.5
COc1ccc(CNC(=O)CN2C(=O)NC3(CCCCCC3)C2=O)cc1	-3%	/	-3	1.3	/	-3.0	/	11	13	0.1
COc1ccc(N2CCN(C(CNS(=O)(=O)c3cccs3)c3cccnc3)CC2)cc1 (stereo not given)	6%	-10	5	0.2	0.2	/	43	/	/	/
CN(C)CCNC(=O)C(=O)C1C(=O)Nc2ccccc21 (stereo not given)	/	1	-6	1.2	2.6	-1.2	-2	25	27	3.1
C=CCNc1nc(-c2cccc(OC)c2O)nc2ccccc12	?	?	8	0.3	-3.4	/	9	/	/	/
CCOC(=O)c1c(-c2ccc(-c3ccccc3)cc2)csc1NC(=O)CCN1CCOCC1	11%	-14	17	-1.0	-4.8	2.5	13	29	15	8.1
CN1CCCC1CCNS(=O)(=O)c1ccc(Br)cc1 (stereo not given)	5%	-7	3	1.4	1.9	/	15	/	/	/
CC(C)CCN=CC1=C(O)CC(c2ccccc2)CC1=O (stereo not given)	-2%	7	7	-0.2	?	-0.9	8	-8	-12	-5.3
CC(=O)c1c(C)[nH]c(C(=O)OC(C)C(=O)Nc2cc(S(=O)(=O)N3CCCCC3)ccc2Cl)c1C (stereo not given)	-1%	-20	-20	0.3	1.7	/	-21	/	/	/
Cc1nc2c(n1C1CCCCC1)C(=O)c1ccccc1C2=O	0%	23	-6	-1.0	0.9	/	15	/	/	/

Next section:
SMILES	Vif TR-FRET	Calb FLC	Beta apoptosis	A1 inh	RanGTP-Impb inh	MLL AF4-AF9 inh	T cruzi inh	rRNA inh HTS	rRNA inh HTS OD600	rRNA inh HTS RFP
CCOc1ccc(C/C(N)=N/n2cnnc2)cc1	-2%	-3	-4	0.2	3.8	-17	-16	10	3	-0.8
O=C(CN(CCO)c1ccccc1)NC12CC3CC(CC(C3)C1)C2	0%	-9	7	2.6	0.5	/	-4	/	/	/
CCc1c(C)nc2ncnn2c1Nc1ccc(C)cc1	/	-5	-3	1.7	1.1	-2.2	1	1	-3	-1.2
CCSc1ccccc1C(=O)NCc1cccnc1	30%	0	-4	-0.1	?	-7.1	-1	-4	5	-1.6
Cc1cc2c(=O)n(C)c(SCC(=O)Nc3cccc(F)c3)nc2s1	/	-6	8	0.2	?	-2.1	-3	6	2	2.8
O=C(NCc1cccnc1)c1cccc(S(=O)(=O)Nc2cccc(Cl)c2)c1	2%	/	-6	-1.5	/	0.9	/	-9	3	-1.3
COC(=O)Cc1ccc(NC(=S)NC(C)(C)C)cc1	/	-2	-1	-0.5	2.6	-1.9	-13	16	14	5.7
